Source: PubChem (Fisher Drug Discovery Resource Center)
NPYLR7 ag: activates Aedes aegypti NPYLR7 receptor; 270,000 compounds, 0.15% hits; activation, % at 10 µM; HEK293T NPYLR7/Galpha15, GCaMP6s calcium fluorescence; in the data active = activation above about 40%;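 also: 0% = vehicle and 100% = reference agonist at the receptor; some compounds past the cut are filed as inactive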
NPYLR7 ag max-min: second read-out of NPYLR7 ag, no call of its own (marks repeat the call); activation, %; measured here: Max-Min RFU normalised activation; some inactives read as strong as hits;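 span of the calcium signal over five minutes; 0% = vehicle and 100% = native peptide agonist; compound fluorescence can raise it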
Starred values were filed as active, the others as inactive; & = joins results of further samples.

Start of the data: the first five records (preview)
SMILES	NPYLR7 ag	NPYLR7 ag max-min
CCCNC(=O)CCc1nnc2n1CCN(Cc1ccccc1C)C2=O	4	1
NC(=O)Cn1nc(-c2ccc(Br)cc2)ccc1=O	9	1
COc1ccccc1C(=O)Nc1ccc(-c2c(-c3cccc(F)c3)nn(-c3ccc(C)cc3)c2OC(C)=O)cc1	-13	0
COC(=O)c1ccc(C(=O)N(CCN(C)C)c2nc3c(F)cc(F)cc3s2)cc1	-3	-5
CN(Cc1cc(C(C)(C)C)n[nH]1)C(=O)/C=C/c1ccccc1	2	0

Results, from the first entry:
SMILES	NPYLR7 ag	NPYLR7 ag max-min
CCCNC(=O)CCc1nnc2n1CCN(Cc1ccccc1C)C2=O	4	1
NC(=O)Cn1nc(-c2ccc(Br)cc2)ccc1=O	9	1
COc1ccccc1C(=O)Nc1ccc(-c2c(-c3cccc(F)c3)nn(-c3ccc(C)cc3)c2OC(C)=O)cc1	-13	0
COC(=O)c1ccc(C(=O)N(CCN(C)C)c2nc3c(F)cc(F)cc3s2)cc1	-3	-5
CN(Cc1cc(C(C)(C)C)n[nH]1)C(=O)/C=C/c1ccccc1	2	0
O=C(Cn1ccc(C(F)(F)F)n1)Nc1ccccn1	-2	-2
COc1ccc(C(=O)Nc2nnc(CC(=O)N/N=C\c3c[nH]c4ccccc34)s2)cc1	23	7
CSc1ccc(S(=O)(=O)N(CC(=O)NC(C)C)c2ccc(C)cc2)cc1	-11	-19
CCC(C(=O)N(Cc1ccc(C)cc1)Cc1nc2cc(C)ccc2o1)c1ccccc1 (centres undefined)	3	1
Cc1cccc(CN(CCN2CCOCC2)CC(O)COC(C)C)c1 (centres undefined)	33	26
Brc1cnc(N2CCCC2)nc1N1CCOCC1	17	7
Ic1c(-c2ccccc2)noc1-c1ccccc1	0	-5
CC(CS(=O)O)C(=O)Nc1ccccc1 (centres undefined)	-11	-15
Cc1ccc(NC(=O)Cn2c(=O)n(Cc3ccco3)c(=O)c3oc4ccccc4c32)c(C)c1	8	7
O=C1CN(c2nccc(CCC(F)(F)F)n2)CCN1	12	10
COc1cc(-c2ccc(C)s2)cc2c1OCCN(Cc1cnc[nH]1)C2	0	-1
Cc1ccc(C2(O)CCN(C(=O)C(Cc3cnc[nH]3)n3cccc3)CC2)nc1 (centres undefined)	-5	-9
CC(C)Cn1c(N)c(C(=O)Cn2cc(C(F)(F)F)cc(Cl)c2=O)c(=O)n(C)c1=O	9	5
CCN(CC)CCCNC(=O)c1nnc2n(c1=O)CCN2c1ccc(C)cc1	3	3
CC1(C)Cc2c(c(N3CCOCC3)[nH]c(=S)c2C#N)CO1	2	-1
O=C(CSc1nnc(-c2ccc(Cl)cc2)n1-c1ccccc1)N/N=C\c1cccc2ccccc12	-3	-8
CCc1noc(C(C)N2CCN(S(=O)(=O)c3c(C)c(C)c(C)c(C)c3C)CC2)n1 (centres undefined)	2	-5
Cn1cccc1C(=O)N/N=C\C1=Cc2cc(Cl)ccc2OC1	7	5
CCOC(=O)c1c(NC(=O)c2cccs2)sc2c1CCCCC2	-9	-14
Cc1nn(-c2ccccc2)c2c1[P+](=O)C(=C1N(C)c3ccccc3C1(C)C)C=N2 (centres undefined)	0	-1

(cont.)
SMILES	NPYLR7 ag	NPYLR7 ag max-min
Nc1nc2c(nc(Br)n2C2OC3COP(=O)(O)O[C@@H]3C2O)c(=O)[nH]1 (some centres undefined)	3	-7
O=C(CCC1CCN(Cc2cc(F)ccc2-n2cccn2)CC1)N1CCCC1	5	3
O=c1cccnn1CCCNS(=O)(=O)c1ccccc1	-6	-10
O=C(/C=C/c1cccs1)N(Cc1cccnc1)c1nc2c(Cl)cccc2s1	-22	-5
Cc1nn2c3cc(N4CCCCC4)ccc3nc2c2ccccc12	0	-1
c1cc(-c2ccc(CN3CCCC4(CCNC4)C3)o2)[nH]n1 (centres undefined)	0	-1
CCC(NC(=O)c1cccc(C(F)(F)F)c1C)C1=CCN(C)CC1 (centres undefined)	9&9	3&-2
O=C(CN1CCN(c2ccccc2)CC1)c1c[nH]c2ccccc12	4	-2
Cc1ccccc1-c1cc2nc(NCCc3ccncc3)n(C)c(=O)c2s1	4	0
CCOc1ccc2nc(S(=O)(=O)NC(=O)C3(C)CCN3C(=O)CCc3cccs3)sc2c1 (centres undefined)	4	2
N#CC1C(=N)Oc2n[nH]c(-c3ccc4c(c3)OCO4)c2C1c1ccc(O)cc1 (centres undefined)	11	5
CCOc1ccc(N(CCC#N)C(=O)COc2ccc(C#N)cc2)cc1	10	3
Cc1ccccc1NC(=O)CSc1ccc2nnc(-c3ccncc3)n2n1	-6	-6
Cn1c(=O)n(Cc2ccc(Br)cc2)c(=O)c2c1nc1n2CCN1c1ccc(F)cc1	7	4
Cc1cccc(CN2CC(=O)C(c3nc(-c4cccc(Cl)c4)cs3)C2=N)c1 (centres undefined)	3	0
CC1C=CCC2C(=O)N(c3cc(Cl)ccc3O)C(=O)C12 (centres undefined)	20	13
CCc1ccc2nc(NC(=O)c3ccc(=O)[nH]c3)sc2c1	-1	1
CN1CCN(C=Nc2c(C#N)cnn2C)CC1	-20	-23
O=C1c2ccccc2C(=O)N1N1C(=O)c2cccc3c(N4CCOCC4)ccc(c23)C1=O	-7	-14
Cc1ccnc(SCc2cc(=O)c(OC(=O)c3ccc4ccccc4c3)co2)n1	-16	-9
CC(=O)Nc1cccc2c1CCN(C(=O)C1CC1c1ccccc1F)C2 (centres undefined)	1	-2
O=C(CCc1ccccc1F)N1CCSC1=Nc1ccccc1Cl	13	12
Cc1noc(C)c1NC(=O)NC(C)c1ccc(-n2cccn2)cc1 (centres undefined)	0	0
O=C(CC(c1ccccc1)C1(O)c2ccccc2C(=O)N1Cc1ccccc1)NCc1ccccc1 (centres undefined)	-8	-10
CCN(CC)c1ccc(C(=O)CN2C(=O)C(C)(C)ON=C2c2ncccc2C)cc1	0	-3

Pulled one by one from above (five):
SMILES	NPYLR7 ag	NPYLR7 ag max-min
Cc1ccccc1-c1cc2nc(NCCc3ccncc3)n(C)c(=O)c2s1	4	0
CN1CCN(C=Nc2c(C#N)cnn2C)CC1	-20	-23
Cc1nn2c3cc(N4CCCCC4)ccc3nc2c2ccccc12	0	-1
Cc1ccccc1NC(=O)CSc1ccc2nnc(-c3ccncc3)n2n1	-6	-6
Cc1noc(C)c1NC(=O)NC(C)c1ccc(-n2cccn2)cc1 (centres undefined)	0	0

New compounds follow
SMILES	NPYLR7 ag	NPYLR7 ag max-min
Cc1ccn2c(NC(=O)COc3ccccc3)c(-c3ccc(F)cc3)nc2c1	-7	-5
Cc1cccc2c1C(=O)NC1(CCN(C(=O)c3ccco3)CC1)N2	7	-8
Cc1ccc(-n2cc(CN3CCCC(Cn4ccnc4C)C3)cn2)cc1C (centres undefined)	3	-7
Cc1cccc(-n2nc(C(C)C)c(C(=O)O)c2C(C)C)c1	3	14
CC(C)C(NS(=O)(=O)c1ccccc1Cl)c1ccc2c(c1)OCCCO2 (centres undefined)	-1	5
COc1cc(C=C2N=C(c3ccc(OC)c(OC)c3)OC2=O)cc(OC)c1	-1	-5
CC(=O)c1c(C)nc2nc(-c3ccncc3)nn2c1C	0	19
COc1ccc(-c2nc3sc(CCNS(=O)(=O)c4cccc(C(C)=O)c4)c(C)n3n2)cc1	-1	-1
Cc1ccccc1[C@@H]1C[C@H]2CN(C3CCCC3)C(=O)[C@]23CCCN13	-5	5
CCCCCCN=C(NC(=O)c1ccccc1Cl)OC	4	9
COc1cc(C(=O)N2CCNC(=O)C2)cc(Cl)c1OC(C)C	1	2
COCCN(CC(=O)Nc1nc(CC(=O)N2CCN(c3ccccc3F)CC2)cs1)C(=O)c1ccc(OC)cc1	-4	4
CN1CCN(n2c3c(c(SCC(=O)Nc4ccc5c(c4)OCCO5)nc2=O)CCCC3)CC1	1	-5
Cc1ccc(-c2c(NCc3ccccc3)oc3c2c(=O)n(C)c(=O)n3C)cc1	-7	-8
CCc1nc(-c2cccc(-n3ccnc3-c3nccn3C)c2)n[nH]1	19	8
O=C(c1cncn1-c1ccccc1)N1CCN(S(=O)(=O)c2ccccc2C(F)(F)F)CC1	-2	-5
CCCCCCCOc1ccc(C(=O)N2CCC(c3cn(Cc4ccc(C(F)(F)F)cc4)c4ccccc34)CC2)cc1	7	3
O=C(O)C1CC(c2ccccc2)CN(C(=O)c2ccccc2Cl)C1 (centres undefined)	22	10
Cn1cc(-c2nccc3[nH]nc(-c4cccc(OC(F)(F)F)c4)c23)cn1	-1	-2
Cc1ccn2c(C(=O)N3CCC4(CCCO4)CC3)nnc2n1	9	7
CCC(Nc1nc(-c2cccnc2)nc2c1cnn2C)c1ccnn1C (centres undefined)	-2	-1
Cc1ccc(C2C(C(=O)c3ccco3)=C(O)C(=O)N2CCN2CCOCC2)o1 (centres undefined)	13&2	7&2
CCOC(=O)c1c(C)n(-c2ccc(OC)cc2)c2ccc(OC(=O)C#Cc3ccccc3)cc12	-6	1
CC(C)(C)CN1CC(NC(=O)Cc2ccc(O)c(Cl)c2)CC1=O (centres undefined)	9	7
CCCCCCCn1c(CN2CCOCC2)nc2c1c(=O)[nH]c(=O)n2C	10	2

Other entries.
SMILES	NPYLR7 ag	NPYLR7 ag max-min
CCOCCCNc1nc2c(c(=O)n(C)c(=O)n2C)n1Cc1ccccc1	0	-4
CC#CC(=O)N1CCCC(N2CCN(c3cccc(Cl)c3)CC2)C1 (centres undefined)	-3	-3
COCc1cc(C)nc(OCC(=O)N/N=C\c2cc(Br)c(OC)c(Br)c2)c1C#N	2	4
O=C(Nc1ccc(F)cc1F)c1c(O)c2ccccc2[nH]c1=O	5	4
NC1=NC(=O)SC1=Cc1ccc(-c2nc3ccccc3s2)o1	-3	-7
CCn1cc2nc(OC)c(CNC(=O)c3cccc4c3OCC4)cc2c1O	-6	-7
CC(=O)Oc1cccc(N2C(=O)c3cccc4c([N+](=O)[O-])ccc(c34)C2=O)c1	5	13
Nc1nc(Cl)cc(Sc2nccn2Cc2ccccn2)n1	-1	-6
COCCOC(=O)C1=C(C)NC2=C(C(=O)CCC2)C1c1cccc(Cl)c1Cl (centres undefined)	-3	-6
CNC(=O)c1cccc(S(=O)(=O)NC(C)C2=CCCN(C)C2)c1 (centres undefined)	-8	-12
COc1cc(S(=O)(=O)NC(C)c2ccccc2)c(OC)cc1Br (centres undefined)	4	4
CCOC(=O)CNC(=O)c1cc(-c2ccc(Cl)c(Cl)c2)nc2ccccc12	-14	-20
CCOc1nn(CC)cc1-c1nnc(SCc2ccccn2)n1C	1	3
O=C1NC2(CCCCC2)N(C(=O)c2cccs2)C2=C1CCCC2	7	4
Cc1ccc(F)c(C(=O)N2CCCCCC2(C)C(=O)NCC(C)C)c1F (centres undefined)	-8	-6
Cc1noc(C)c1C(=O)N1CCC1(C)C(=O)NS(=O)(=O)C1CC1 (centres undefined)	0	0
CCc1ncc2c(n1)CN(C(=O)C1(c3ccc(F)cc3)CCOCC1)C2	3	-5
FC(F)(F)CCc1ccnc(-c2ccc[nH]2)n1	8	4
COc1ccc(S(=O)(=O)N2CCCC(C)C2)cc1N1CCN(C(=O)C(C)(C)OC(C)=O)CC1 (centres undefined)	27	21
Cn1nnc2c(N3CCC4(CC3)OCCO4)ncnc21	0	-2
O=c1cc(CSc2nnc(NC3CC3)s2)nc2ccc(Br)cn12	5	4
COCCN1C(=O)N(CC(C)C)C(=O)C12CCN(Cc1cn(C)c3ccccc13)CC2	9	-3
CCOC(=O)N1CCN(S(=O)(=O)CCCOc2ccc3c(c2)OCO3)CC1	6	9
CCOc1ccc(S(=O)(=O)NCc2ccc3c(c2)OCO3)c(C)c1C	-12	-12
CC(C)(C)CNC(=O)C1(N2Cc3ccc(Nc4ccncc4)nc3C2=O)CC1	5	1

(continued)
SMILES	NPYLR7 ag	NPYLR7 ag max-min
COc1ccc(N2CCN(C(=O)C3CC=CCC3C(=O)Nc3cccc(C(F)(F)F)c3)CC2)cc1 (centres undefined)	-6	-17
CCCOC1CCCN(C(=O)Cc2nn[nH]n2)C1 (centres undefined)	2	0
Cc1cccc(-c2[nH]ncc2CNCC2CCCN2c2cccnn2)c1 (centres undefined)	4	-1
COCc1nc(-c2ccccc2)nc(N2CCN(C(=O)c3ccc(F)cc3)CC2)c1Cc1ccccc1F	13	31
COc1ccc(C(=O)NC2CCC(NC(=O)[C@H]3CCCN3S(=O)(=O)c3ccc(C)cc3)CC2)cc1 (some centres undefined)	-1	2
Cc1ccc(SCCCCN2C(=O)NC(C)(C)C2=O)cc1	-5	-7
COC(=O)N1CC2=CC(C)(C)COc3ccc(OC)c(c32)C1C(=O)O (centres undefined)	3	7
O=C1CCNc2ncc(Br)cc2CN1Cc1nccs1	3	-2
CCOCCCNC(=O)c1cc(NC(=O)COc2ccc(Cl)cc2)ccc1N1CCC(Cc2ccccc2)CC1	-5	6
CCC(NC(=O)c1ccc(F)cc1)C1c2cc(OC)c(OC)cc2CCN1Cc1ccccc1C (centres undefined)	3	4
COc1cc(Cl)c(C)cc1-n1ccnc(NCC(C)c2ccccc2)c1=O (centres undefined)	6	-4

Two consecutive records already listed, for reference:
SMILES	NPYLR7 ag	NPYLR7 ag max-min
CCC(NC(=O)c1ccc(F)cc1)C1c2cc(OC)c(OC)cc2CCN1Cc1ccccc1C (centres undefined)	3	4
COc1cc(Cl)c(C)cc1-n1ccnc(NCC(C)c2ccccc2)c1=O (centres undefined)	6	-4

This is a subset; rates above refer to the full screens.
